CFTR F508del: total CFTR protein upregulators, primary screen, cell-based, HeLa F508del-CFTR, immunofluorescence, viability (AID 1224863). Cystic fibrosis transmembrane conductance regulator (Homo sapiens). HeLa F508del-CFTR, immunofluorescence total CFTR, 24 h; by the record results were divided by relative cell number; some inactives read as strong as hits. calls, or highest fold increase where a dose series was run. 10,000 compounds, 0.1% hits; in the data nearly all actives have a first-pass fold increase above 1.5; a few of its hits are not listed in these tables;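 also: total CFTR protein by anti-CFTR immunofluorescence in fixed cells; first pass at 25 µM or 10 µg/mL by library and series up to twice that; 1 = untreated cells; first-pass hits also needed half or more of the cells alive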
CFTR F508del fold 25 µM: also measured in CFTR F508del; calls as there; fold increase; measured here: primary screen single dose 25 uM; library dosed in µM
CFTR F508del fold 10 ug/mL: also measured in CFTR F508del; calls as there; fold increase; measured here: primary screen 10 ug/mL
CFTR F508del viability 25 µM: also measured in CFTR F508del; calls as there; viability, %; measured here: primary viability 25 uM; library dosed in µM;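 0% = killed and 100% = untreated cells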
CFTR F508del viability 10 ug/mL: also measured in CFTR F508del; calls as there; viability, %; measured here: primary viability 10 ug/mL;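 0% = killed and 100% = untreated cells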
* marks the source's active call; other numbers are inactive results; i = inactive; . = not tested or not shown; & = joins results of further samples.

SMILES	CFTR F508del	CFTR F508del fold 25 µM	CFTR F508del fold 10 ug/mL	CFTR F508del viability 25 µM	CFTR F508del viability 10 ug/mL
CC(N)c1nn[nH]n1 (centres undefined)	i	.	1.09	.	102.0
COc1ccc(OC)c(C(O)C(C)N)c1 (centres undefined)	i	1.11	.	105.0	.
OCC(O)[C@H]1O[C@@H]2O[C@H](C(Cl)(Cl)Cl)O[C@@H]2[C@H]1O (some centres undefined)	i	1.04	.	89.0	.
CN(C)[C@@H]1C(=O)C(C(N)=O)=C(O)[C@@]2(O)C(=O)C3=C(O)c4c(O)cccc4[C@@](C)(O)[C@H]3[C@H](O)[C@@H]12	i	0.93&1.07	.	76.0&90.0	.
C#CCOc1ccc(CNCCc2ccc(OC)cc2)cc1OCC	i	.	1.07	.	95.0
CCCC(C)(COC(N)=O)COC(=O)NC(C)C (centres undefined)	i	1.1	.	88.0	.
CC(C)c1c(CN(C)C(C)Cc2ccccc2)n(C)n(-c2ccccc2)c1=O (centres undefined)	i	0.91	.	88.0	.
Cc1ccc2c(c1)C1CN(C)CCC1N2 (centres undefined)	i	.	1.11	.	96.0
CC(C)(C)CC(=O)N1CCC(=O)CC1	i	.	0.96	.	86.0
NC1C[C@H]1c1ccccc1 (some centres undefined)	i	1.04	.	97.0	.
Cn1c(-c2ccncc2)nn(CN2CC=C(c3ccccc3)CC2)c1=S	i	.	1.13	.	107.0
COP(=O)(OC)OC=C(Cl)Cl	i	1.08	.	87.0	.
O=c1n(CN2CC=C(c3ccccc3)CC2)nc2ccccn12	i	.	0.94	.	93.0
Oc1c(Br)cc(Br)cc1Br	i	.	1.09	.	98.0
CN(C)[C@@H]1C(=O)C(C(N)=O)=C(O)[C@@]2(O)C(=O)C3=C(O)c4c(O)cccc4[C@@](C)(O)[C@H]3C[C@@H]12	i	0.87&1.02	.	72.0&109.0	.
COc1ccc(CN2CCNCC2)c(OC)c1OC	i	0.99	.	92.0	.
O=c1[nH]c2ccccc2o1	i	.	1.13	.	79.0
C=CCN1CC[C@]23c4c5ccc(O)c4O[C@H]2/C(=N/N=C2\CC[C@@]4(O)[C@H]6Cc7ccc(O)c8c7[C@@]4(CCN6CC=C)[C@H]2O8)CC[C@@]3(O)[C@H]1C5	i	0.72	.	24.0	.
Cc1noc(CN2CCC(c3c[nH]c4ccccc34)CC2)n1	i	.	0.93	.	82.0
O=C1CC[C@@]2(O)[C@H]3Cc4ccc(O)c5c4C2(CCN3CC2CC2)[C@H]1O5	i	1.11	.	90.0	.
c1ccc2nc(N3CCNCC3)ccc2c1	i	0.99	0.99	94.0	90.0
NC1(c2ccc(Br)cc2)CCCC1	i	.	0.93	.	85.0
C[C@@H]1O[C@@H](O[C@H]2C[C@@H](O)[C@]3(CO)[C@H]4[C@H](O)C[C@]5(C)[C@@H](C6=CC(=O)OC6)CC[C@]5(O)[C@@H]4CC[C@]3(O)C2)[C@H](O)[C@H](O)[C@H]1O	i	0.56	.	26.0	.
COc1cccc([C@]2(O)CCCC[C@H]2CN(C)C)c1	i	1	.	105.0	.
CCOc1cc(C=O)ccc1O	i	1.03	.	101.0	.
CC(Nc1ccc([N+](=O)[O-])c2nonc12)c1ccc(Cl)cc1 (centres undefined)	i	.	1.15	.	87.0
O=C1NC(=S)NC(=O)C1=Cc1ccco1	i	.	1.18	.	115.0
CC(C)(C)NCC(O)c1ccccc1Cl (centres undefined)	i	1.01&1.08	.	105.0&91.0	.
O=c1nc(O)n(Cl)c(=O)n1Cl	i	1.05	.	109.0	.
CCCN1C(=O)C2(Cc3cc([N+](=O)[O-])ccc3N3CCCCC32)C(=O)NC1=S (centres undefined)	i	.	0.93	.	90.0
NCCc1ccc(Cl)s1	i	.	1.03	.	102.0
C[C@]12COC(=O)C[C@@H]1CC[C@@H]1[C@@H]2CC[C@@]2(C)[C@H]1CC[C@]2(C)O	i	0.93	.	93.0	.
C#CC1(O)CCC2C3CCC4=CC(=O)CCC4(C)C3CCC21C (centres undefined)	i	1.18	.	94.0	.
CC[C@@]1(O)C(=O)OCc2c1cc1n(c2=O)Cc2cc3c(O)cccc3nc2-1	i	1.33	.	77.0	.
NCC1(CC(=O)O)CCCCC1	i	1.11&1&1.03	.	97.0&100.0&80.0	.
O=[N+]([O-])c1ccc([As](=O)(O)O)cc1	i	1.13	.	95.0	.
O=P1(N(CCCl)CCCl)NCCCO1 (centres undefined)	i	1.17&0.92	.	109.0&96.0	.
CC1CCC(C)N1C1CCCNC1 (centres undefined)	i	.	0.88	.	94.0
O=[N+]([O-])c1ccc(O)c([N+](=O)[O-])c1	i	0.93	.	89.0	.
O=c1c2ccccc2[nH]c(=S)n1-c1ccc([N+](=O)[O-])cc1	i	.	0.94	.	98.0

Some of the entries above in a different format.
Results follow in this order: CFTR F508del	CFTR F508del fold 25 µM	CFTR F508del fold 10 ug/mL	CFTR F508del viability 25 µM	CFTR F508del viability 10 ug/mL
C[C@]12COC(=O)C[C@@H]1CC[C@@H]1[C@@H]2CC[C@@]2(C)[C@H]1CC[C@]2(C)O
→ i	0.93	.	93.0	.
NCC1(CC(=O)O)CCCCC1
→ i	1.11&1&1.03	.	97.0&100.0&80.0	.
CC1CCC(C)N1C1CCCNC1 (centres undefined)
→ i	.	0.88	.	94.0
O=c1c2ccccc2[nH]c(=S)n1-c1ccc([N+](=O)[O-])cc1
→ i	.	0.94	.	98.0
CC[C@@]1(O)C(=O)OCc2c1cc1n(c2=O)Cc2cc3c(O)cccc3nc2-1
→ i	1.33	.	77.0	.

An excerpt of these results, as labelled records.
Molecule: Cc1ccc2c(c1)C1CN(C)CCC1N2 (centres undefined)
  CFTR F508del: i
  CFTR F508del fold 25 µM: .
  CFTR F508del fold 10 ug/mL: 1.11
  CFTR F508del viability 25 µM: .
  CFTR F508del viability 10 ug/mL: 96.0
Molecule: CC(C)(C)CC(=O)N1CCC(=O)CC1
  CFTR F508del: i
  CFTR F508del fold 25 µM: .
  CFTR F508del fold 10 ug/mL: 0.96
  CFTR F508del viability 25 µM: .
  CFTR F508del viability 10 ug/mL: 86.0

Further results follow:
SMILES	CFTR F508del	CFTR F508del fold 25 µM	CFTR F508del fold 10 ug/mL	CFTR F508del viability 25 µM	CFTR F508del viability 10 ug/mL
NCc1cccnc1	i	1.01	.	85.0	.
CCc1c(C(=O)O)cnn1C(C)(C)C	i	.	1	.	92.0
COC(C)(C)CCC[C@H](C)C/C=C/C(C)=C/C(=O)OC(C)C	i	1.02	.	88.0	.
Cc1cccc(C)c1NC1=NCCCS1	i	1.1&1.08&0.97	.	78.0&81.0&83.0	.
O=c1oc2ccccc2c(O)c1Cc1c(O)c2ccccc2oc1=O	i	0.82	.	83.0	.
Cc1c(N)nc([C@H](CC(N)=O)NC[C@@H](N)C(N)=O)nc1C(=O)N[C@H](C(=O)N[C@@H](C)[C@H](O)[C@@H](C)C(=O)N[C@@H](C(=O)NCCc1nc(-c2nc(C(=O)NCCC[S+](C)C)cs2)cs1)[C@@H](C)O)C(O[C@H]1O[C@H](CO)[C@H](O)[C@@H](O)[C@H]1O[C@H]1O[C@H](CO)[C@@H](O)[C@H](OC(N)=O)[C@@H]1O)c1cnc[nH]1 (some centres undefined)	i	1.04	.	82.0	.
CCNC1(c2cccs2)CCCCC1=O (centres undefined)	i	1.1	.	94.0	.
C#C[C@]1(O)CC[C@H]2[C@@H]3CCC4=CC(=O)CC[C@]4(C)[C@H]3CC[C@@]21C	i	1.09	.	92.0	.
O=C1CC[C@@]2(O)[C@H]3Cc4ccc(O)c5c4[C@@]2(CCN3CC2CC2)[C@H]1O5	i	0.99	.	106.0	.
Oc1ccc(Cl)cc1	i	1.04	.	84.0	.
CC[n+]1c(-c2ccccc2)c2cc(N)ccc2c2ccc(N)cc21	2.31	1.82	.	82.0	.
O=C(CCCN1CCC2(CC1)C(=O)NCN2c1ccccc1)c1ccc(F)cc1	i	1.22&1.1	.	94.0&79.0	.
COc1ccc(CCNCc2ccncc2)cc1	i	.	1.13	.	103.0
NCCc1cccc(Cl)c1Cl	i	.	1.21	.	94.0

Two of the compounds above, with bars between the fields:
molecule | CFTR F508del | CFTR F508del fold 25 µM | CFTR F508del fold 10 ug/mL | CFTR F508del viability 25 µM | CFTR F508del viability 10 ug/mL
CC[n+]1c(-c2ccccc2)c2cc(N)ccc2c2ccc(N)cc21 | 2.31 | 1.82 | . | 82.0 | .
O=C(CCCN1CCC2(CC1)C(=O)NCN2c1ccccc1)c1ccc(F)cc1 | i | 1.22&1.1 | . | 94.0&79.0 | .

This is a subset; rates above refer to the full screens.
